Sfp inh = qHTS Assay for Inhibitors of Bacillus subtilis Sfp phosphopantetheinyl transferase (PPTase). 4'-phosphopantetheinyl transferase ffp (Bacillus subtilis), Q9F4F7. Biochemical Sfp PPTase activity, qHTS. Potency, µM, inactives show max response, negative = inhibition, actives largely listed as inhibitors. hit rate 3.5% among 310,000. AID 1490, 2009; active means well fitted inhibition curve with a large enough effect; inconclusive means small, poorly fitted or top-dose-only effect, or another doubt; inactive means no such curve, though single readings can be large or run the other way;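 further: the enzyme is Sfp with the accession as filed and its product quenches rhodamine fluorescence; potency means the concentration at half of the fitted maximal effect; 0% = enzyme reaction without inhibitor and -100% = no enzyme wells; top concentration of the series not given in the record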
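Fluorescence-quenching assay with 15 nM Sfp, 5 uM rhodamine-CoA and 12.5 uM BHQ-2-labelled ybbR peptide in pH 7.6 Hepes/MgCl2 buffer. Enzyme was pre-incubated with compound for 15 min at room temperature. Rate was taken from the 30-min fluorescence change (525/598 nm).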
gsp agonist = qHTS for Agonist of gsp, the Etiologic Mutation Responsible for Fibrous Dysplasia/McCune-Albright Syndrome: qHTS. gsp mutant cells, cAMP HTRF, 30 min; control for the full effect not named in the record. Potency, µM (titrated, usually from 76.9 µM), for the others: at the highest dose activation (cAMP increase), usual class: activators. hit rate 0.13% among 340,000; active = well fitted activation curve with a large enough effect; inconclusive = small, poorly fitted or top-dose-only effect, or another doubt; inactive = no such curve, though single readings can be large or run the other way; cell line not stated here;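 further: phosphodiesterase inhibitor Ro 20-1724 added with compounds to block cAMP breakdown; potency means the concentration at half of the fitted maximal effect; nearly all actives have a fitted effect of over 60% in size; about a fifth of the inactives were tested at one dose only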
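Cells stably selected in G418 were plated at 2000/well, grown 16-24 hr, then given compounds in DMSO with the PDE inhibitor […] (300 uM solution added) for 30 min at 37C; cAMP was read by HTRF.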
TRPML1 inh = qHTS for Inhibitors of the Human Mucolipin Transient Receptor Potential 1 (TRPML1). Mucolipin-1 (Homo sapiens), Q9GZU1. TRPML1-inducible cells, Ca2+ dye fluorescence, FDSS; active compounds read low; inhibition of EC80 agonist-evoked calcium signal. activity change, negative = inhibition, % (test concentration not listed). hit rate 0.02% among 390,000. AID 624415, 2012; in the data active means activity change below about -50%; inconclusive means about -30% to -50%; inactive means above about -30%;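 further: stimulus is agonist 54-4 at its EC80 concentration; on the % scale 0 is the no-effect control and ±100 the full control effect; compound concentration not given in the record; the text of the record puts the active cut at -80%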
Target sequence (Q9GZU1 whole entry, looked up): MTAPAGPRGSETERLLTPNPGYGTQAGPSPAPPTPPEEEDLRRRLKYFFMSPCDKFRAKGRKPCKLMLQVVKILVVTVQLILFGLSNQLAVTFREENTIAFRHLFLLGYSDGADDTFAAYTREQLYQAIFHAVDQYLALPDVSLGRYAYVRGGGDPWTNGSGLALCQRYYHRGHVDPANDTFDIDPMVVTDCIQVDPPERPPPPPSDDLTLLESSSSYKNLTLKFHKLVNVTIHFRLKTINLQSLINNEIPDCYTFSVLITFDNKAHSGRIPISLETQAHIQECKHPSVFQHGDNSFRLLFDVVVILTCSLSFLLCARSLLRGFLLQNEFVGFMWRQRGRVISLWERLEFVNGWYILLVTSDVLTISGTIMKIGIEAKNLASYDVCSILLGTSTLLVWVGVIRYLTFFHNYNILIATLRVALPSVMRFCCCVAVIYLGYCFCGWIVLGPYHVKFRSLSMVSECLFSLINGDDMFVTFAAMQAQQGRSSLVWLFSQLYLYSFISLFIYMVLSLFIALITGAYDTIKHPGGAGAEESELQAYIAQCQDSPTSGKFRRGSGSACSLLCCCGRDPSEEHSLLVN
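Calcium fluorescence in TRPML1-DL cells induced overnight with Tet: a 110 s read after compound pin addition, then a 110 s antagonist read after challenge with 54-4 at 4 uM final (EC80).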
Menin MLL FP FL = qHTS Assay for Inhibitors Targeting the Menin-MLL Interaction in MLL Related Leukemias: Competition With Fluorescein Labeled MLL-derived Peptide. Fluorescence polarization, fluorescein-MLL peptide displacement from menin. FP activity change, % at 61.4 µM. 290,000 tested, under 10 active. AID 1766, 2009; inconclusive = falling polarisation curve, or a change in total fluorescence; inactive = total fluorescence flat and polarisation flat or rising; no compound was filed as active; the % refers to the polarisation; negative = inhibition;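 further: % of control where 0% means no effect; inhibitors lower the polarisation; unlabelled MLL peptide was the positive control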
gsp antagonist = qHTS for Antagonists of gsp, the Etiologic Mutation Responsible for Fibrous Dysplasia/McCune-Albright Syndrome: qHTS. hit rate 0.4% among 340,000. Potency, µM (doses to about 76.9 µM), without a hit: at the highest dose activity change, negative = inhibition, most hits filed as inhibitors. gsp-mutant cells, cAMP HTRF, 30 min; control for the full effect not named in the record. AID 624288, 2012; active = falling curve of any shape with a large fitted effect; inconclusive = falling curve, mostly with a smaller effect; inactive = flat or rising curve; cell line not stated here;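 further: intracellular cAMP measured with PDE inhibitor Ro 20-1724 present during compound exposure; potency means the concentration at half of the fitted maximal effect; on the % scale 0 is the no-effect control and ±100 the full control effect; nearly all actives have a fitted effect of over 65% in size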
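Cells in G418 medium, seeded 16-24 h, 37C; buffer exchange to DPBS + 1 mM CaCl2, 0.5 mM MgCl2, 0.05% BSA; cpds in DMSO + […] (300 uM stock), 30 min 37C; HTRF cAMP detection.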
ClpP mod = qHTS Assay for Activators of ClpP | ATP-dependent Clp protease proteolytic subunit (Bacillus subtilis (strain 168)), P80244 | purified B. subtilis ClpP, FRET peptide cleavage, 20 min | Potency, µM (top dose mostly 57.5 µM), for inactives: at the top dose activity change, negative = active | hit rate 1.9% among 340,000; active = well fitted falling curve with a large enough effect; inconclusive = small, poorly fitted or top-dose-only effect; inactive = no such curve, though single readings can be large or run the other way; further: potency means the concentration at half of the fitted maximal effect; the source files actives as falling curves though it sought activators and does not explain the sign; nearly all actives have a fitted effect of over 65% in size; many hits overshoot -100%
Target sequence (P80244 whole entry, looked up): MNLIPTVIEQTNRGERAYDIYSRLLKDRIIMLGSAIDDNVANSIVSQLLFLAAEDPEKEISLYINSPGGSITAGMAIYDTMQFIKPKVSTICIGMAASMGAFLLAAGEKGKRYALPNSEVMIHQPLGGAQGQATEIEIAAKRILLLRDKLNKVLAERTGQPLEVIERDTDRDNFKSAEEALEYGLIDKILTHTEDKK
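ClpP 10 microg/mL final, pH 8 Tris/KCl buffer with BSA, glycerol, Tween-20; compound pinned in; FRET-FV substrate; RT 20 min; Ex320/Em430; ΔFRET vs ADEP 5.8 microM, DMSO, no enzyme.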
TRPV1 PAM = HTS Assay for Compounds that Act as Potentiators of the Vanilloid Receptor 1 | Transient receptor potential cation channel subfamily V member 1 (Homo sapiens), Q8NER1 | hit rate 0.02% among 320,000 | TRPV1-expressing cells, Fluo-8 calcium influx, capsaicin EC20 potentiation; host cell line not named in the record; control for the full effect not named in the record | potentiation, % at 8.33 µM; active means potentiation above 80%; inconclusive means 30% to 80%; inactive means below 30%; further: 0% is about no effect
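Cells expressing TRPV1 were dye-loaded with Fluo-8 and read kinetically: 10 s baseline, 3 min after compound (agonist portion), then 2 min after EC20 capsaicin (allosteric enhancer portion). Calcium-bound dye fluorescence at 480/520 nm.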
Starred values were filed as active, the others as inactive; ? = inconclusive; · = not tested or not shown; & = joins results of further samples; [ ] = another dose, or the depositor's remark.

SMILES	Sfp inh	gsp agonist	TRPML1 inh	Menin MLL FP FL	gsp antagonist	ClpP mod	TRPV1 PAM
Brc1cccc(C2Nc3cccc4cccc(c34)N2)c1	-20%	-20%	-5	2.4	9%	·	1
CCn1c2ccccc2c2cc(NC(=O)COC(=O)c3ccccc3O)ccc21	-1%	-1%[15.4 µM]	-4	-1.0	2%	·	1
COCCn1c(=O)[nH]c2cc(C(=O)NCCN3CCN(c4cccc(Cl)c4)CC3)ccc2c1=O	2%	-50%[inhibitor]	-2	0.6	-25%	-14%	-28
Cn1c(=O)n(C)c2cc(NC(=O)c3cccc([N+](=O)[O-])c3)c(Br)cc21	?	-21%[15.4 µM]	-12	0.6	-1%	-4.2%	-1
O=C(O)c1ccc(C2SCC(=O)N2Cc2ccco2)cc1 (stereo not given)	18%	?	-15	0.9	1%	·	-3
Cn1c(SCc2ccc(Cl)cc2)nnc1C1CC1	-11%	4%[15.4 µM]	-6	-0.1	-4%	·	7
CNC(=O)c1nnn(-c2ccccc2)c1C(=O)NC	9%	13%	-9	0.8	14%	-4.2%	-2
O=C(NCC(O)COc1ccc([N+](=O)[O-])cc1)c1ccccc1 (stereo not given)	12%	-12%[15.4 µM]	2	1.8	-3%	-5.0%	-4
CCc1ccc(NS(=O)(=O)c2ccc3[nH]cc(C(=O)N4CCc5ccccc54)c(=O)c3c2)cc1	-8%	12%	21	6.6	-4%	-2.1%	22
CN1CCN(C(=O)C2=C[C@H](C(C)(C)C)C[C@H](OCCCCO)O2)CC1	-6%	17%	32	-2.4	7%	-0.5%	11
Cn1nc(-c2ccc(C(=O)N3CCN(Cc4ccccc4)CC3)cc2)c2ccccc2c1=O	20%	?	-2	2.9	?	0.4%	15
COc1cccc(CN(C)C(=O)c2cc(-c3cccs3)nc3ccccc23)c1	13%	?	-3	8.6	?	32µM*	-5
CCOc1ccc(NS(=O)(=O)c2ccc(Cl)c(C(=O)N(C)Cc3cccnc3)c2)cc1	·	-6%	-15	·	-9%	1.4%	-5
COC(=O)c1cc(C(=O)OCC(=O)Nc2cc(C)on2)cc([N+](=O)[O-])c1	8%	-1%[15.4 µM]	-13	7.3	-2%	·	-4
CCCCc1c(C)nc(N2CCCC2)[nH]c1=O	0%	-25%	11	4.1	6%	-3.1%	0
CCN(CC)c1ccc(NC(=O)CCc2nnc3ccc(N4CCCCC4)nn23)c(C)c1	2%	-10%	1	2.9	-6%	-0.2%	0
Cc1cc(C)cc(OCC(=O)NC2=NCCS2)c1	9%	13%	6	-1.3	15%	-0.3%	3
N#CCSc1nnc(Nc2ccccc2)s1	7%	1%	1	3.8	10%	0.1%	-8
Cc1onc(-c2ccccc2)c1C(=O)N/N=C/c1ccc([N+](=O)[O-])c(O)c1	15%	6%	39	·	?	0.8%	3
O=C(CSc1nnc(-c2ccco2)o1)NCCc1ccccc1	·	-12%	-1	·	1%	1.2%	29
S=c1[nH]nc(-c2cccnc2)n1Cc1ccccc1	-34%	-13%	-4	-1.6	7%	4.2%	0
COCCn1c(-c2ccc(OC)cc2)nc2oc3cc(OC)ccc3c(=O)c2c1=O	16%	-10%	0	1.8	-13%	?	4
O=C(Cc1c[nH]c2ccccc12)NCC(=O)Nc1ccc(F)c(F)c1F	·	3%	-8	·	9%	0.8%	7
O=C(Nc1ccccc1)/C(=C/c1cccc(Br)c1)NC(=O)c1ccco1	-19%	2%[15.4 µM]	20	-2.7	6%	·	-15
CCOC(=O)C1=C(O)/C(=C/c2ccc(OCC(=O)O)c(OC)c2)SC1=Nc1ccc(OCC)cc1	-22%	-5%[15.4 µM]	1	·	?	·	-6
COc1ccc(CNC(=O)CSc2nc(SC)ns2)cc1	2%	29%	44	-1.6	-1%	2.8%	2
O=C(Cc1ccccc1)Nc1ccc(CN2CCOCC2)cc1	-7%	-27%	-7	3.6	3%	1.2%	-17
O=C(Nc1cccc(C(=O)O)c1)/C(=C\c1ccc2c(c1)OCO2)NC(=O)c1ccccc1Br	·	-90%[inhibitor]	10	·	·	-13%	·
O=C(COC(=O)c1ccncc1)Nc1cccc2ccccc12	·	-1%	26	·	-2%	1.0%	·
CCOc1ccc(CNc2ncc(-c3ccccc3)n2C)cc1	-7%	-5%[15.4 µM]	-12	-4.3	0%	-2.6%	-3
O=S(=O)(c1cnc[nH]1)N1CCN(c2ccccc2)CC1	10%	6%	-4	1.1	6%	-2.1%	8
COc1cccc(C(=O)Nc2cc([N+](=O)[O-])ccc2N2CCN(C)CC2)c1	3%	3%	-9	-7.5	0%	0.5%	-23
CN(Cc1ccccc1F)C(=O)C1CCCN(C(=O)c2ccc(Cl)cc2)C1 (stereo not given)	·	-4%[15.4 µM]	4	·	-5%	·	-3
Cc1nc(SCC(=O)Nc2ccc(CN3CCCC3)cc2)c2c(C)c(C)sc2n1	·	-8%	-6	·	23%	0.8%	0
CC(C)(C)C(=O)O/N=C(\N)COc1cccc(Cl)c1	13%	-2%[15.4 µM]	-6	3.3	-2%	1.9%	14
CC(=O)CC(=O)Nc1nc(C)cc(C)n1	5%	18%[15.4 µM]	5	2.7	-4%	·	27
CCc1cccc(CC)c1NC(=O)COC(=O)CCc1cc(OC)c(OC)c(OC)c1	-2%	-7%[15.4 µM]	-18	6.5	-2%	-2.9%	3
CCOC(=O)C1CCCN(C(=O)C2CCN(Cc3nc(-c4ccc(Cl)cc4)oc3C)CC2)C1 (stereo not given)	·	2%	-7	·	-12%	-1.4%	·
CCOC(=O)N1CCN(C(=O)c2c(Cl)cnn2C)CC1	9%	?	7	·	11%	-1.1%	0
CC(=Cc1cccs1)C(=O)c1ccccc1	·	22%	-1	·	·	1.5%	·
Cc1cc(Br)ccc1NC(=O)CN(C)C(=O)C1CCN(C(=O)c2ccc(F)cc2)CC1	·	?	-2	·	-1%	-0.7%	5
CC(NC(=O)CN1CCN(c2cccc(Cl)c2)CC1)c1ccccc1 (stereo not given)	-1%	-39%[inhibitor]	7	7.3	0%	-2.0%	-6
CCSc1ccccc1C(=O)N1CCCC1	11%	-4%	15	1.3	6%	-1.2%	1
O=C(CSCc1ccc(F)cc1)Nc1nc2c(s1)CCCC2	10%	0%	0	-2.4	-14%	-3.7%	-11
C=CCNC(=O)C1CC(=O)N(c2ccc(OCC(=O)Nc3ccc(C)cc3)cc2)C1 (stereo not given)	-13%	16%	-12	3.5	-1%	-1.6%	-6
O=C(Nc1ccncc1)c1ccccc1F	?	-43%[inhibitor]	-9	-0.5	16%	-2.3%	23
COc1cccc(N=CC2=C(O)CCCC2=O)c1	11%	-1%[15.4 µM]	-7	0.2	-11%	·	-1
CC(C)C/C(O)=C/c1nc2cc(Cl)ccc2oc1=O	56µM*	-11%	16	0.9	-11%	0.7%	4
Cc1ccc(C(C(=O)NC2CCCC2)N(C(=O)c2csnn2)c2cccc(F)c2)o1 (stereo not given)	9%	-49%[inhibitor]	-1	-8.9	0%	·	15
COc1ccc(NC(=O)/C=C/C(=O)O)c(OC)c1	-1%	3%[15.4 µM]	-15	2.0	5%	·	16
CSc1cccc(NC(=O)c2sc3nc4n(c(=O)c3c2C)CCC4)c1	-19%	9%	4	·	-19%	0.2%	14
c1csc(-c2nnc(COc3ncnc4sccc34)o2)c1	?	?	6	5.8	2%	-2.9%	-3
Cc1cccc(Nc2nc(N)nc(CN3CCN(c4ccccc4)CC3)n2)c1	-5%	-4%	13	0.1	0%	-2.8%	-2
Cc1cc(C)n(NC(=S)NC2CCCC2)c(=O)c1C#N	-3%	1%[15.4 µM]	-2	0.5	-2%	·	·
CCC1=NN2C(=N)/C(=C\c3cccn3-c3ccc(C)cc3C)C(=O)N=C2S1	-2%	-19%	-6	5.5	-16%	1.4%	19
Cc1onc(-c2ccccc2)c1C(=O)N1CCN(S(=O)(=O)c2ccccc2C(F)(F)F)CC1	22%	-15%[15.4 µM]	-6	1.2	18%	4.5%	?
Oc1ccccc1CNCCCNCc1ccccc1O	6%	6%	20	0.7	-2%	-0.8%	-12
Cn1c(=O)c2c(nc(OCc3cccnc3)n2Cc2ccccc2)n(C)c1=O	17%	?	-3	5.3	-10%	0.4%	-12
Cc1ccc([N+](=O)[O-])cc1NC(=O)CSc1nnc(C)n1CC1CCCO1 (stereo not given)	24%	-7%[15.4 µM]	7	·	14%	·	0
CN1CN(C)c2ccc([N+](=O)[O-])c3cccc1c23	3%	21%[15.4 µM]	-10	6.9	-3%	16µM*	25

The listing continues.
SMILES	Sfp inh	gsp agonist	TRPML1 inh	Menin MLL FP FL	gsp antagonist	ClpP mod	TRPV1 PAM
COc1ccc(OC)c(NC(=O)N[C@@H](Cc2ccccc2)C(=O)O)c1	23%	9%	-4	-1.0	4%	-1.3%	1
Cc1cc(C(=O)O[C@H]2[C@H](C)NS(=O)(=O)[C@H]3C[C@@H]4C=C[C@]23O4)cc([N+](=O)[O-])c1	·	1%	9	·	2%	-0.3%&0.8%	20
Cc1cc(NC(=O)CCCC(=O)OCC(F)(F)C(F)F)cc(C)c1C(=O)O	22%	?	3	1.7	0%	0.8%	4
Cc1ccc(OCc2ccc(C(=O)Nc3cc(C)on3)o2)c([N+](=O)[O-])c1	2%	30%	-6	·	12%	0.0%	0
CN1CCN(C(=O)C(=O)c2cn(CC(=O)N3CCOCC3)c3ccccc23)CC1	·	-80%[inhibitor]	13	·	·	0.5%	·
O=C(CSc1ccc([N+](=O)[O-])cc1)NNC(=O)c1ccccc1F	1%	-40%[inhibitor]	-4	0.0	1%	·	9
O=C(Nc1cccc(-c2cccc(F)c2)c1)C1CCN(CC2CCOC2)CC1 (stereo not given)	6%	-56%[inhibitor]	-9	·	8%	-2.8%	-5
